Vif A3G: HIV-1 Vif–A3G interaction blockers – biochemical, TR-FRET, GST-Vif 1-94, biotin-A3G peptide, dose response retest, primary screen (AID 1117319). TR-FRET GST-Vif / biotin-A3G peptide binding; higher % means a stronger effect; test concentration not given here; strong numbers were not always called active. actives 0.57% (n = 260,000). inhibition, %; hits with a dose series show IC50 in µM;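 active = above the screen mean plus three standard deviations and confirmed in dose response; inconclusive = results disagree or hit not tested in dose response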;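 note: Vif residues 1-94 fused to GST binding biotinylated APOBEC3G peptide 110-148; 0% = full assay without inhibitor and 100% = GST in place of GST-Vif; retest series ran down from 100 µM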
HNF4A DNA FP: change in binding of human HNF4 alpha to DNA; activity change, % at 10 µM; actives 0.3% (n = 360,000); P41235; HNF4a-FITC DNA binding, fluorescence polarization, 1 h; in the data active = activity change above about 30%, passing the limit was not always enough;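 note: controls were the assay level and a saturating level of protein; the project sought stronger binding though the title names inhibitors; some compounds called inactive have numbers as strong as hits; positive values seem to mean higher polarization but the record does not say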
Target sequence (P41235 whole entry, looked up): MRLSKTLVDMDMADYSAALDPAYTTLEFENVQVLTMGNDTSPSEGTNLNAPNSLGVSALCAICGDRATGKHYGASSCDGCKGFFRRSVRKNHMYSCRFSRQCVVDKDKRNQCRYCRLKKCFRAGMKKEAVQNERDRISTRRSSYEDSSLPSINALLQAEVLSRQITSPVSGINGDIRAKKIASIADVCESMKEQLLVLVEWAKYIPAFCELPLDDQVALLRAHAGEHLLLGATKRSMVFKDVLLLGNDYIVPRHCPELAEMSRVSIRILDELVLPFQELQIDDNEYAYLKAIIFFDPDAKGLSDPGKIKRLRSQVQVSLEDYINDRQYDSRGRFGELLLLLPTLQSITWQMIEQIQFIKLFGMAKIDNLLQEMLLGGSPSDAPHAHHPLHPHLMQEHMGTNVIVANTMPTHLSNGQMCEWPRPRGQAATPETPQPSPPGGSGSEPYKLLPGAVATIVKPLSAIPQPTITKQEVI
E coli growth: inhibitors of Escherichia coli growth | OD600, 23 h; hits give low values | OD600 absorbance (test concentration not listed) | actives 0.21% (n = 330,000);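 active = OD600 absorbance below the run mean of sample wells minus 3.6 SD, in any replicate, cut at about 0.56 in these data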;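 note: stock transfer was 300 nL into about 60 µL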
AF4-AF9 inh: MLL-AF4/AF9 protein interaction inhibition; AlphaScreen, biotin-AF4 peptide binding to FLAG-AF9; inhibition, % at 10 µM; actives 0.47% (n = 350,000); AID 651704;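 active = every replicate reaching a set inhibition limit, whatever the replicate mean, cut at about 25% in these data; inconclusive = mean inhibition reaches that limit but some replicates miss it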;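 note: 0% = plate neutral control median and 100% = total signal loss; the record names both 10 and 1 µM as test concentration; the first replicate is given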
ALR inh: blocks human ALR sulfhydryl oxidase activity; P55789; AID 485317; inhibition, % (concentration not given with the values); purified ALR, DTT oxidation, H2O2 HRP-luminol luminescence; actives 3.8% (n = 290,000);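 active = mean and each replicate at 75% or more; inconclusive = only one of the two met; inactive = neither met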;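 note: stock transfer was 7.5 nL into about 7.5 µL; 0% = neutral wells and 100% = wells with inactivated enzyme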
Target sequence (P55789 whole entry, looked up): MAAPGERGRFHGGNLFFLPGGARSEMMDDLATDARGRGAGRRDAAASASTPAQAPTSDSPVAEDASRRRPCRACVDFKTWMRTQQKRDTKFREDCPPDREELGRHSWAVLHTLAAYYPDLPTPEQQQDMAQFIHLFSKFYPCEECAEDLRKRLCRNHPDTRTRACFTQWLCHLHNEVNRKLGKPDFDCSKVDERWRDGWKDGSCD
FGF22 binding: shifts melting point of recombinant human FGF22 | actives 1.5% (n = 340,000) | Q9HCT0 | calls only at 9.99 µM | recombinant FGF22 thermal shift, SYPRO orange fluorescence; percent of sucrose octasulfate shift, DMSO zero;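 active = melting point raised past a set limit in the mean and every replicate; inconclusive = no clear call; three in four hits are not shown here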
Target sequence (Q9HCT0 whole entry, looked up): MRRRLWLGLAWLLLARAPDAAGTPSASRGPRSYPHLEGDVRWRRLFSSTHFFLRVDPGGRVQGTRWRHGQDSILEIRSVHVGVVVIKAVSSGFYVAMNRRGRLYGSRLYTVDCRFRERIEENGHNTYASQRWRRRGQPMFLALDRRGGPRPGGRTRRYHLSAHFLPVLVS
Ecoli rRNA inh: selective bacterial rRNA inhibition in E. coli; E. coli WT GFP vs humanized-ribosome RFP mutants, fluorescence, 24 h; hits give low values; DMSO median 0, no signal -100; GFP signal change (wild-type ribosome), % (test concentration not listed); actives 1.6% (n = 350,000);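 active = significant combined selectivity score with lowered wild-type GFP, culture density cut under 30%, mutant RFP and density less affected; inactive = any of these conditions unmet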; note: one replicate is shown; some compounds called inactive have numbers as strong as hits
Ecoli rRNA inh OD600: further read-out of Ecoli rRNA inh, marked with its call; OD600 change, %; measured here: OD600 growth;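 optical density of the mix in the first replicate; 0 = DMSO median and -100 = no signal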
Ecoli rRNA inh RFP: recorded beside Ecoli rRNA inh, whose call it bears; RFP signal change, %; measured here: RFP humanized mutant strains;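 first replicate; 0 = DMSO median and -100 = no signal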
* = called active by the depositor; i = inactive; ? = inconclusive; · = no result given; & = joins results of further samples. Only part of the results is shown; rates above refer to the full screens.

No.	SMILES	Vif A3G	HNF4A DNA FP	E coli growth	AF4-AF9 inh	ALR inh	FGF22 binding	Ecoli rRNA inh	Ecoli rRNA inh OD600	Ecoli rRNA inh RFP
1	NC(=O)CS(=O)(=O)c1nc2ccccc2n1Cc1ccccn1	?	1.8	0.741	2.1	5.4	i	12.2	16.9	-7.3
2	O=S(=O)(/N=C(/Nc1nc2ccccc2s1)c1ccccc1)c1ccccc1	·	-4.4	0.705	-1.1	5.9	i	2.4	7.9	-2.2
3	O=C(COc1cccnc1[N+](=O)[O-])NCc1ccc2c(c1)OCO2	14.6%	4.2	0.724	4.2	-9.8	i	-0.7	-6.7	-9.8
4	CCN(CC)C(=O)C1=C(C)N(CCC2=CCCCC2)C(=O)C(CC(=O)NCc2ccco2)C1 (configuration not stated)	1.1%	-6.1	·	0.2	·	i	-4.9	-7.4	-6.0
5	C[C@@H]1CCCCO[C@H](CN(C)C(=O)c2ccccc2)[C@@H](C)CN([C@H](C)CO)C(=O)c2cc(NC(=O)CCCN(C)C)ccc2O1	·	·	·	-4.0	·	i	3.1	-2.2	1.4
6	CCOc1ccc(Cl)cc1/C=N/O	-5.4%	5.7	·	6.0	-0.9	i	2.5	5.7	1.2
7	O=C(Nc1ccc(Cl)cc1)N[C@H]1CC[C@H](CCn2cc(C3(O)CCCC3)nn2)O[C@H]1CO	·	·	·	-6.2	·	i	-5.0	-2.1	-0.7
8	CCCC#Cc1ccc2c(c1)O[C@H](CN(C)C(C)=O)[C@@H](C)CN([C@H](C)CO)S2(=O)=O	·	·	·	2.2	·	i	-3.4	5.8	-1.4
9	Cc1cc(C(=O)Nc2cccc3c2O[C@@H](CN(C)S(=O)(=O)c2cccs2)[C@@H](C)CN([C@H](C)CO)C3=O)n(C)n1	·	·	·	-14.0	·	i	-6.3	-4.9	3.6
10	CC(=O)N(/N=C1\Sc2ccccc2C1=O)c1ccc(C)cc1C	-5.7%	7.1	·	·	-6.4	·	·	·	·
11	CCOC(=O)C1=C(N)Oc2cc(O)ccc2C1c1ccc(F)cc1F (configuration not stated)	·	-0.6	0.64	7.6	20.0	i	-8.0	-15.5	5.9
12	COc1cc(C2C3=C(COC3=O)Oc3cc4c(cc32)OCO4)ccc1O (configuration not stated)	-0.7%	-4.8	·	2.7	·	i	-50.4	-73.0	-12.1
13	Cc1noc(C)c1S(=O)(=O)Nc1ccc2c(c1)C(=O)N([C@H](C)CO)C[C@@H](C)[C@@H](CN(C)C(=O)Cc1ccccc1)OCCCC[C@H](C)O2	·	·	·	-0.6	·	i	-4.0	-6.5	2.3
14	CC(Oc1ccc(Br)cc1Br)C(=O)NC1CCCC1 (configuration not stated)	10.3%	·	0.653	·	-2.9	·	·	·	·
15	S=c1nccc(-c2ccc3c(c2)CCO3)[nH]1	-18.6%	-2.4	·	·	98.0*	i	21.1	12.4	53.2
16	CC(C)NC(=O)N(C)C[C@H]1Oc2ccc(NC(=O)NC3CCCCC3)cc2CC(=O)N([C@H](C)CO)C[C@@H]1C	·	·	·	-3.8	·	i	-0.6	0.4	-2.6
17	Cc1ccc(C(=O)NC(NCc2ccccc2)C(Cl)(Cl)Cl)cc1 (configuration not stated)	-14.1%	-1.6	0.709	-1.0	0.7	i	4.7	17.6	-7.2
18	CC1(C)CC(=O)c2cnc(N3CCN(c4ccccc4)CC3)nc2C1	5.6%	-2.3	0.759	·	·	·	·	·	·
19	CCCC#Cc1ccc([C@H]2[C@@H](CO)N(C(=O)C3CC3)[C@H]2C#N)cc1	·	·	·	-16.5	·	i	2.4	-2.4	1.7
20	Oc1cc2c(cc1O)C(c1ccccc1)CNCC2 (configuration not stated)	·	1.2	0.663&0.719	6.5	97.9*	i	·	·	·

No.	SMILES	Vif A3G	HNF4A DNA FP	E coli growth	AF4-AF9 inh	ALR inh	FGF22 binding	Ecoli rRNA inh	Ecoli rRNA inh OD600	Ecoli rRNA inh RFP
21	Cc1ccc2cc(/C=N/Nc3nc4ccccc4[nH]3)c(Cl)nc2c1	31.5%	0.2	·	1.5	·	i	-18.8	-22.1	0.6
22	Cc1c(NC(=O)COC(=O)C23CC4CC(CC(Br)(C4)C2)C3)c(=O)n(-c2ccccc2)n1C	-2.0%	3.3	0.678	1.0	-2.3	i	-3.3	-9.2	0.2
23	C[C@H]1CN([C@@H](C)CO)C(=O)CCCn2cc(nn2)CO[C@@H]1CN(C)C(=O)NC1CCCCC1	·	7.2	·	-2.4&-15.5	·	i	0.6&20.6	1.0&16.8	1.6&1.2
24	COc1cc2c(cc1OC)C(c1cccc(Cl)c1Cl)CC(=O)N2 (configuration not stated)	·	-1.8	0.66	2.4	-14.2	i	6.9	-2.3	-0.3
25	COc1ccc(NC(=O)Nc2nc(C(N)CC(C)C)cs2)cc1 (configuration not stated)	·	-0.3	·	7.4	·	i	1.0	-25.3	43.0
26	Cc1c(C(=O)OCC(=O)Nc2c(C)n(C)n(-c3ccccc3)c2=O)cccc1[N+](=O)[O-]	-4.1%	0.6	0.666	1.2	-0.1	i	7.6	4.7	0.5
27	CCC1CCCCN1Cc1ccc(OC)c(OC)c1 (configuration not stated)	8.6%	6.7	0.769	-0.1	-4.2	i	17.4	17.1	-8.1
28	Cc1cccc(OCCCC(=O)O)c1C	-6.0%	1.5	0.654	·	-0.9	·	·	·	·
29	Cc1ccc(NC(=O)C(C)Sc2nnc(-c3cccnc3)o2)cc1 (configuration not stated)	-1.7%	-0.4	0.722	·	2.0	·	·	·	·
30	CN1CC(=O)N(C)c2ncn(Cc3ccccc3)c2C1=O	-1.1%	2.0	0.719	·	11.7	·	·	·	·
31	C#CCn1ccc(O)c(Cc2c(F)cccc2Cl)c1=O	5.4%	-3.7	0.676	-0.7	-11.6	i	2.3	-0.5	-5.6
32	O=S(=O)(NC1CCCCCC1)c1cccc(Cl)c1	-5.3%	-0.4	0.68	-1.7	-2.0	i	-62.9	-80.1	-19.4
33	CCOC(=O)C1CCCN(C2CCN(Cc3nc(-c4ccccc4)no3)CC2)C1 (configuration not stated)	6.6%	-2.4	0.695	0.0	-4.9	i	9.4	10.9	0.0
34	Cc1cc(NC(=O)CSc2nnc(COc3ccccc3)n2Cc2ccco2)no1	-1.2%	0.4	0.718	·	-0.1	·	·	·	·
35	CCC1(C)COC(c2ccc3c(c2)OCO3)OC1 (configuration not stated)	2.1%	-3.1	0.693	-4.8	·	i	10.8	3.8	-0.2
36	CC(C)Oc1ccccc1C1CC(=O)Nc2cc3c(cc21)OCO3 (configuration not stated)	-3.5%	1.2	0.703	·	6.6	·	·	·	·
37	O=C(Nc1cnccn1)c1ccncc1	1.9%	3.6	0.72	·	-8.2	·	·	·	·
38	O=C(CCC(=O)Nc1ccccc1Cl)NNC(=O)NC1CCCCC1	0.7%	0.2	0.652	1.1	-8.0	i	-0.2	-4.2	2.0
39	Cc1cn([C@H]2C[C@H](O)[C@@H](CCC(=O)NCc3ccccc3)O2)c(=O)[nH]c1=O	0.4%	0.1	·	-1.8	·	i	28.2	7.0	4.5
40	O=C(Cn1cc2c(n1)CCCCC2)Nc1ccccc1Cl	·	2.2	0.689	-3.2	-2.4	i	-13.2	-8.5	0.2

A different layout for 9 compounds above.
Screens in order: Vif A3G	HNF4A DNA FP	E coli growth	AF4-AF9 inh	ALR inh	FGF22 binding	Ecoli rRNA inh	Ecoli rRNA inh OD600	Ecoli rRNA inh RFP
21. Cc1ccc2cc(/C=N/Nc3nc4ccccc4[nH]3)c(Cl)nc2c1
    31.5%	0.2	·	1.5	·	i	-18.8	-22.1	0.6
22. Cc1c(NC(=O)COC(=O)C23CC4CC(CC(Br)(C4)C2)C3)c(=O)n(-c2ccccc2)n1C
    -2.0%	3.3	0.678	1.0	-2.3	i	-3.3	-9.2	0.2
23. C[C@H]1CN([C@@H](C)CO)C(=O)CCCn2cc(nn2)CO[C@@H]1CN(C)C(=O)NC1CCCCC1
    ·	7.2	·	-2.4&-15.5	·	i	0.6&20.6	1.0&16.8	1.6&1.2
24. COc1cc2c(cc1OC)C(c1cccc(Cl)c1Cl)CC(=O)N2 (configuration not stated)
    ·	-1.8	0.66	2.4	-14.2	i	6.9	-2.3	-0.3
25. COc1ccc(NC(=O)Nc2nc(C(N)CC(C)C)cs2)cc1 (configuration not stated)
    ·	-0.3	·	7.4	·	i	1.0	-25.3	43.0
26. Cc1c(C(=O)OCC(=O)Nc2c(C)n(C)n(-c3ccccc3)c2=O)cccc1[N+](=O)[O-]
    -4.1%	0.6	0.666	1.2	-0.1	i	7.6	4.7	0.5
27. CCC1CCCCN1Cc1ccc(OC)c(OC)c1 (configuration not stated)
    8.6%	6.7	0.769	-0.1	-4.2	i	17.4	17.1	-8.1
28. Cc1cccc(OCCCC(=O)O)c1C
    -6.0%	1.5	0.654	·	-0.9	·	·	·	·
29. Cc1ccc(NC(=O)C(C)Sc2nnc(-c3cccnc3)o2)cc1 (configuration not stated)
    -1.7%	-0.4	0.722	·	2.0	·	·	·	·

(more compounds)
No.	SMILES	Vif A3G	HNF4A DNA FP	E coli growth	AF4-AF9 inh	ALR inh	FGF22 binding	Ecoli rRNA inh	Ecoli rRNA inh OD600	Ecoli rRNA inh RFP
41	C[C@@H]1CCCCO[C@H](CN(C)C(=O)NC2CCCCC2)[C@@H](C)CN([C@H](C)CO)C(=O)c2cc(NS(=O)(=O)c3ccc(F)cc3)ccc2O1	·	·	·	-0.9	·	i	5.2	0.4	-2.2
42	CNC[C@H]1OCCCC[C@H](C)Oc2ccc(NC(=O)c3ccncc3)cc2C(=O)N([C@@H](C)CO)C[C@@H]1C	·	·	·	-4.3	·	i	5.5	4.2	-1.3
43	C[C@H]1CN([C@@H](C)CO)C(=O)c2cc(C3=CCCC3)cnc2O[C@@H]1CN(C)C(=O)C1CCOCC1	·	·	·	-2.9	·	i	0.7	1.7	-2.1
44	CCN(CC)C(=O)Cn1cnc2sc(C(=O)N3CCN(Cc4ccc5c(c4)OCO5)CC3)c(C)c2c1=O	-2.8%	3.5	0.681	-21.4	-10.5	i	-7.4	-6.6	-4.5
45	Cc1ccc(NCC(=O)Nc2cccc(F)c2)cc1S(=O)(=O)N1CCCCCC1	·	-1.7	·	2.0	-5.7	i	-41.4	-71.1	-9.9
46	Cc1ccc2nsnc2c1NS(=O)(=O)c1c(C)ccc2nsnc12	?	-2.7	0.67	·	-13.9	·	·	·	·
47	O=[N+]([O-])c1cccc(S(=O)(=O)Nc2cccc(-c3ccc(N4CCCC4)nn3)c2)c1	-0.1%	-1.1	0.657	-0.8	·	i	-11.7	-8.2	-2.5
48	COc1ccc(NC(=O)N[C@H]2CC[C@@H](CCn3cc(-c4ccccc4)nn3)O[C@H]2CO)cc1	·	·	·	0.2	·	i	-2.6	-1.5	-0.4
49	CC1CCCCC1NC(=S)Nc1ccc(SC(F)F)cc1 (configuration not stated)	12.1%	2.0	0.694	·	9.6	·	·	·	·
50	COc1cc(/C=C/C(=O)OCC(=O)Nc2ccccc2Cl)cc(OC)c1OC	-10.5%	0.6	·	-1.5	4.9	i	17.9	29.4	-1.3
51	Cc1cccc(N2C(S)=C(C#N)C(=O)NC2c2cccs2)c1 (configuration not stated)	·	0.8	0.675	·	31.3	·	·	·	·
52	O=C(c1ccc(F)cc1)N1CC[C@@H]2[C@H]1c1cc(-c3ccccc3F)ccc1N[C@@H]2CO	·	·	·	-4.5	·	i	-51.7	-73.3	-0.3
